NPYLR7 ag: activates Aedes aegypti NPYLR7 receptor; HEK293T NPYLR7/Galpha15, GCaMP6s calcium fluorescence; activation, % at 10 µM; 270,000 tested, 0.15% active; in the data active = activation above about 40%;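 note: 0% = vehicle and 100% = reference agonist at the receptor; some compounds past the cut are filed as inactive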
NPYLR7 ag max-min: recorded beside NPYLR7 ag, whose call it bears; activation, %; measured here: Max-Min RFU normalised activation; some inactives read as strong as hits;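 span of the calcium signal over five minutes; 0% = vehicle and 100% = native peptide agonist; compound fluorescence can raise it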
Starred values were filed as active, the others as inactive; & = joins results of further samples.

A first look (seven entries):
SMILES | NPYLR7 ag | NPYLR7 ag max-min
C=C(C)Cn1c(C(=O)N2CCN(C(=O)Cc3ccc(OC)cc3)C(C)C2)cc2ccoc21 (stereo not drawn) | -1 | 0
COc1cccc(C2C(C(=O)c3cccs3)=C(O)C(=O)N2CCCN2CCOCC2)c1 (stereo not drawn) | -1 | 4
Cc1cc(C)n(-c2ccc(N3CCN(S(=O)(=O)c4ccc(C)c(C)c4)CC3)nn2)n1 | -7 | -11
C=CC#Cc1ccc(-c2ccc(C)s2)s1 | -7 | -15
CCc1cc(CNC(=O)Nc2ccc(CC(=O)NC)cc2)on1 | 1 | 1
Cc1cccc(NC(=O)C(=O)Nc2ccc3c(c2)N(S(=O)(=O)c2cccs2)CCC3)c1C | 11 | 5
O=C(CN1CCOCC1)N1N=C(c2cccs2)CC1c1cccc(O)c1 (stereo not drawn) | 6 | 10

The list itself, from the start:
SMILES | NPYLR7 ag | NPYLR7 ag max-min
C=C(C)Cn1c(C(=O)N2CCN(C(=O)Cc3ccc(OC)cc3)C(C)C2)cc2ccoc21 (stereo not drawn) | -1 | 0
COc1cccc(C2C(C(=O)c3cccs3)=C(O)C(=O)N2CCCN2CCOCC2)c1 (stereo not drawn) | -1 | 4
Cc1cc(C)n(-c2ccc(N3CCN(S(=O)(=O)c4ccc(C)c(C)c4)CC3)nn2)n1 | -7 | -11
C=CC#Cc1ccc(-c2ccc(C)s2)s1 | -7 | -15
CCc1cc(CNC(=O)Nc2ccc(CC(=O)NC)cc2)on1 | 1 | 1
Cc1cccc(NC(=O)C(=O)Nc2ccc3c(c2)N(S(=O)(=O)c2cccs2)CCC3)c1C | 11 | 5
O=C(CN1CCOCC1)N1N=C(c2cccs2)CC1c1cccc(O)c1 (stereo not drawn) | 6 | 10
COc1ccc(C(Cl)=C(c2ccc(OC)cc2)c2ccc(OC)cc2)cc1 | -6&-1 | -11&-4
CCCCc1nc(N2CCN(C(=O)c3ccccc3OC)CC2)c2c(-c3ccc4ccccc4c3)noc2n1 | 16 | 3
O=C(Cn1nc(-c2cccs2)c2sc(N3CCOCC3)nc2c1=O)c1ccc2ccccc2c1 | -1 | -6
Cc1ccccc1Cn1ccc(NC(=O)c2nc3ncccn3n2)n1 | 3 | 0
CC(C)c1nc2ccc(F)cc2c2c1C(=O)N(NC(=O)Cc1c[nH]c3ccccc13)C2=O | -6 | -11
Cc1ccc(CN(CCc2ccccc2)C(=O)CN(C(=O)c2ccc(Cl)cc2)C2CC2)o1 | 16 | 8
COc1ccc(C(C)N(C)C(=O)/C=C/c2cnn(C)c2)cc1 (stereo not drawn) | -6 | -5
CCOc1ccccc1-n1c(C)cn2c3c(=O)n(C(C)C(C)=O)c(=O)n(C)c3nc12 (stereo not drawn) | 3 | 7
CC1CCN(CC2CCCN(C(=O)c3cc(Cl)ccc3-n3cnnn3)C2)CC1 (stereo not drawn) | 0 | -2
COCCN(Cc1cccc(OS(=O)(=O)c2ccc(F)cc2)c1)C(=O)c1ccc(Br)cc1 | -10 | -12
Cc1ccn(CC(=O)N2CCCC(N(C)Cc3ccccc3)C2)n1 (stereo not drawn) | 18 | 5
Cn1cc(S(=O)(=O)N2CSCC2C(=O)N2CCSCC2)c(=O)n(C)c1=O (stereo not drawn) | 0 | 14
Cn1ncc(NCCc2cccc3cccnc23)c(Cl)c1=O | 6 | 5
CCCNS(=O)(=O)c1cc(NC(=O)c2cccs2)ccc1Oc1cc(C(=O)O)nn1C | -10 | -12
CCNC(=O)Cn1c(CO)cnc1SCc1ccccc1F | 12 | 11
Cc1ccccc1-n1ncc(C(C)NC(=O)C2=CCCCC2)c1C (stereo not drawn) | 7 | -4
Cc1cc(CC(C)n2cnc(-c3ccccc3)c2-c2cnn3cccnc23)n[nH]1 (stereo not drawn) | -1 | -10
Cc1csc(CNC(=O)c2cccc(NCc3cccnc3)c2C)n1 | 1 | -5
CC(=O)c1ccc(NC(=O)NCC(C(C)C)N2CCCC2)cc1 (stereo not drawn) | 7 | 5
CN1C(=O)CON=C1c1ccc2c(c1)CCO2 | 11 | 5
CSCc1noc(CN2CCCC(O)(CO)CC2)n1 (stereo not drawn) | 4 | 1
Cc1nc(CS(=O)(=O)c2nnc(N(C)C)s2)cs1 | 12 | 8
COc1ccc(S(=O)(=O)NC[C@@H]2C=C(C)[C@H](CC(=O)NCc3ccc(C#N)cc3)C[C@H]2C(C)C)cc1 | -8 | -12

Arranged by length of the SMILES (lowest first): part of the list above.
SMILES | NPYLR7 ag | NPYLR7 ag max-min
CN1C(=O)CON=C1c1ccc2c(c1)CCO2 | 11 | 5
Cn1ncc(NCCc2cccc3cccnc23)c(Cl)c1=O | 6 | 5
Cn1cc(S(=O)(=O)N2CSCC2C(=O)N2CCSCC2)c(=O)n(C)c1=O (stereo not drawn) | 0 | 14

Looked up by structure from the list above, 6 records:
SMILES | NPYLR7 ag | NPYLR7 ag max-min
CCc1cc(CNC(=O)Nc2ccc(CC(=O)NC)cc2)on1 | 1 | 1
CC1CCN(CC2CCCN(C(=O)c3cc(Cl)ccc3-n3cnnn3)C2)CC1 (stereo not drawn) | 0 | -2
Cn1ncc(NCCc2cccc3cccnc23)c(Cl)c1=O | 6 | 5
COc1ccc(C(C)N(C)C(=O)/C=C/c2cnn(C)c2)cc1 (stereo not drawn) | -6 | -5
COc1ccc(C(Cl)=C(c2ccc(OC)cc2)c2ccc(OC)cc2)cc1 | -6&-1 | -11&-4
Cc1ccn(CC(=O)N2CCCC(N(C)Cc3ccccc3)C2)n1 (stereo not drawn) | 18 | 5

Additional results.
SMILES | NPYLR7 ag | NPYLR7 ag max-min
Cc1ccc(-c2cc(NC(=O)C(C)C)n[nH]2)s1 | 2 | -5
Cc1cccc(-c2ccc(NC(=O)C3CCN(C(=O)CC4=CCCCC4)CC3)cc2)c1 | -5&-9 | -4&-10
C=CCOC1C[C@](OCc2cccc(Cl)c2)(C(=O)NC(C)C)C[C@@H](O)[C@H]1O (stereo partly drawn) | 19 | 20
CCc1c(C)nc(N)nc1N1NC1=S | 4 | 3
COCCN1CCCC(O)(CN2CCSCC2)C1=O (stereo not drawn) | 6 | 1
COc1ccc(C(=O)Nc2nc3ccc(C)cc3s2)cc1[N+](=O)[O-] | -12 | -16
Nc1c(C(=O)Nc2cccc(Cl)c2)c2ccccn2c1C(=O)c1ccc(F)cc1 | -5 | -10
COC(=O)c1ccc(CNc2nc(-c3cccnc3)nc3ccccc23)cc1 | 1 | 0
CCCn1cc(C(=O)N2CCCC3(CN(C)C(=O)O3)C2)c(C)n1 (stereo not drawn) | 6 | 4
CCCCN(CCC(=O)O)c1nc(Cc2ccc(F)cc2)ns1 | -20 | -15
O=C(NCCN1CCCCCC1=O)c1cccnc1Oc1ccc(Br)cc1 | 13 | 12
O=C(O)CCCCN1C(=O)CSC1=S | -3 | -4
O=C(CCl)c1ccc(NC(=O)c2ccco2)cc1 | 10 | 11
COC(=O)C(CC(C)C)NC(=O)CCC1CCCCC1 (stereo not drawn) | -5 | -10
Cc1noc(-c2ccncc2)c1C(=O)N(C)CCc1ccccn1 | -2 | 6
Cc1ccc2oc(CN(Cc3ccncc3)C(=O)C3C[C@@H]3c3ccccc3)nc2c1 (stereo partly drawn) | -1 | 0
CCOC(=O)N1CCN(Cc2nc(-c3ccc(OC)cc3F)oc2C)CC1 | -9 | -13
Cc1ccc(C(C)C)c(OCC(=O)n2ccccc2=NC(C)C)c1 | 0 | 5
COc1ccc(C(=O)Oc2cccc(NC3=NS(=O)(=O)c4ccccc43)c2)cc1OC | 3 | -1
CS(=O)(=O)NCC(=O)NCc1cnn2ccccc12 | 8 | 8
O=C(c1nc2sccn2c1CNCCCn1ccnc1)N1CCCC1 | 2 | 6
Clc1cccc(-n2ncc3c(N4CCNCC4)nc(Cc4ccccc4)nc32)c1 | -11 | -9
COc1ccc(S(=O)(=O)NC(=O)C2(C)CCN2C(=O)CC2CC2)cc1OC (stereo not drawn) | 4 | 2
CC(C)(C)C(=O)N1CCN(c2ncnc3c2nnn3-c2ccc(F)cc2)CC1 | -3 | -8
CC1(C(=O)NS(=O)(=O)c2cccc(C#N)c2)CCN1C(=O)COc1ccc(Cl)cc1 (stereo not drawn) | 7 | 6
CCN(CC)c1ccc(C(=O)Nc2ccc(NC(=O)OC)cc2)c(O)c1 | 1 | 0
O=C(O)c1cc(-c2ccoc2)cc(S(=O)(=O)N2CCSCC2)c1 | -4 | -4
O=C(NC1CC1)c1ccc(-c2cnc3c(Nc4cccc(OC(F)(F)C(F)F)c4)nccn23)cc1 | 0 | -5
COc1ccc(NC(=O)CSc2ccc3nnc(-c4ccc(C)cc4)n3n2)cc1 | 17 | 22
CCCc1cc(=O)[nH]c(-n2nc(C)cc2NC(=O)c2ccc(OC)cc2)n1 | 17 | 11

Entries of single compounds, quoted from the list. Order of values: NPYLR7 ag, NPYLR7 ag max-min
CS(=O)(=O)NCC(=O)NCc1cnn2ccccc12 as listed: 8, 8
CCOC(=O)N1CCN(Cc2nc(-c3ccc(OC)cc3F)oc2C)CC1 as listed: -9, -13
COc1ccc(C(=O)Oc2cccc(NC3=NS(=O)(=O)c4ccccc43)c2)cc1OC as listed: 3, -1

(further entries)
SMILES | NPYLR7 ag | NPYLR7 ag max-min
O=C(CCOc1ccccc1)N(Cc1ccccn1)c1nc2ccc(F)cc2s1 | 3 | -5
Cc1nc(-c2cccnc2)ncc1C(=O)N1CC(c2ccncc2)C1 | 2 | -1
O=S(=O)(NCc1ccccc1)NCc1nnc2n1CCCC2 | 5 | 2
O=C(CN1CN(c2ccccc2)C2(CCN(C(=O)c3ccc(Cl)cc3)CC2)C1=O)NC1CCCCC1 | 33 | 31
O=C(Nc1ccccc1)C1CCCN(Cn2nnc3ccccc3c2=O)C1 (stereo not drawn) | -3 | -3
O=C(COc1ccc(Cl)c2ccccc12)N1CCC(C(=O)N2CCCCCC2)CC1 | -2 | -3
Cc1nc(Cc2ccc(OC(C)C)cc2)[nH]c(=O)c1CC(=O)O | 0 | -1
COC(=O)c1ccc(C(=O)NC2CC3CCC(C2)N3CCc2ccc(OC)c(OC)c2)cc1 (stereo not drawn) | 23 | 16
Cc1ccnc(NC(=O)CCNS(=O)(=O)c2c(C)cc(C)cc2C)c1 | 12 | 11
COCCOC(=O)C1=C(C)N(C)C(=S)NC1c1ccc(NC(=O)c2cccs2)cc1 (stereo not drawn) | 4 | 10
O=C(CC1Nc2cccc3cccc(c23)NC1=O)Nc1ccccc1F (stereo not drawn) | 1 | 7
O=C(Nc1nnc([C@H]2C[C@H](O)[C@@H](CO)O2)s1)NC1CCCCC1 | -2 | -4
CN(Cc1ccc(Cl)s1)C(=O)CSc1nnc(C2CC2)n1C1CC1 | -2 | -2
Oc1ccccc1/C=C/c1noc(-c2ccccc2O)n1 | 15 | 8
CCOc1ccc(NC(=O)C(=O)Nc2ccc(C)cc2[N+](=O)[O-])cc1 | -5 | 2
Cc1cccc(OCc2nnc(NC(=O)C(F)(F)F)s2)c1C | -2 | -3
CN(C(=O)C1CC1c1cccc(F)c1F)c1ccc(C(N)=O)cc1 (stereo not drawn) | -1 | -2
CCOc1ncccc1-c1ccc2nc(C(C)O)[nH]c2c1 (stereo not drawn) | -1 | -5
O=c1[nH]nc(Sc2ncc([N+](=O)[O-])s2)n1-c1ccc2c(c1)OCCO2 | -17 | -21
COCC(=O)N1CCC2(CC1)NC(=O)c1ccc(Cl)cc1N2 | 2 | 13
COCc1c(Br)c(C)nc(OCC(=O)N/N=C\c2ccc(-c3ccc(C)cc3[N+](=O)[O-])o2)c1C#N | 21 | 21
O=C(Nc1scnc1-c1ccccc1)C1C2CCCC21 (stereo not drawn) | -18&1 | -17&5
C=CCn1c(Cl)c(/C=N\NC(=O)c2ccccc2)sc1=O | 0 | -2
CCCCNC(=O)NC(C)c1nnc(SCc2ccccc2C)n1-c1ccc(C)cc1 (stereo not drawn) | -3 | -4
O=S1(=O)CCC(NC(=S)Nc2ccccn2)C1 (stereo not drawn) | 2 | 1
CCOC(=O)c1ccc2c(c1)nc(SCc1cc(Cl)ccc1F)n2Cc1ccccc1 | 2 | -7
CCOc1cc2c(c([N+](=O)[O-])c1)NC(c1ccccc1)C1CC=CC21 (stereo not drawn) | -13 | -13
C=CCN(CC=C)C(=O)CC1C(=O)NCCN1Cc1ccc(OC)c(C)c1 (stereo not drawn) | 15 | 5

Assay outcomes as filed in PubChem BioAssay.

Some of the compounds tested, so the mix of outcomes need not match the whole.
